High-throughput results as filed in PubChem BioAssay.
Vaccinia stage: Vaccinia orthopox stage-specific inhibition; Vaccinia-infected cells, mCherry/Venus stage reporter fluorescence; stronger effect = lower value; some inactives read as strong as hits; activity change (mCherry), % (test concentration not listed); 89,000 compounds, 0.01% hits; AID 1053133;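 active = mCherry past -33% and 40 or more points under the early reporter, replicates agreeing; inconclusive = past -33% without that gap or agreement; tested in A549 cells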;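 note: scaled between vehicle wells and reference inhibitor wells; 23 nL library stock went into each well; one replicate is shown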
Vaccinia stage Venus: further read-out of Vaccinia stage, marked with its call; activity change (Venus), %; measured here: Venus reporter, other viral stage;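 negative = less Venus signal; first of two replicates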
Numbers without * were called inactive; ? = inconclusive; . = no result given; & = joins results of further samples.

SMILES	Vaccinia stage	Vaccinia stage Venus
COc1cccc(-c2ccc([C@H]3[C@H](CO)N4C(=O)CN(C(=O)c5cccnc5)C[C@@H]34)cc2)c1	13	6
O=C(NC1CCCCC1)N1CC(=O)N2[C@H](C1)[C@@H](c1ccc(-c3ccccc3)cc1)[C@@H]2CO	?	.
CCOC(=O)N(C)C[C@@H]1OCc2ccccc2-c2c(n(C)c3ccccc23)C(=O)N([C@@H](C)CO)C[C@@H]1C	-12	-4
C[C@H]1CN([C@@H](C)CO)C(=O)Cc2cc(NC(=O)CCC(F)(F)F)ccc2O[C@@H]1CN(C)Cc1ccc(C(=O)Nc2ccccc2N)cc1	8	12
COCC(=O)Nc1ccc2c(c1)[C@@H]1C[C@@H](CC(=O)O)O[C@@H](CO)[C@@H]1O2	11	7
COc1cccc(CNC(=O)C[C@@H]2C=C[C@H](NC(C)=O)[C@H](CO)O2)c1	4	3
Cc1ccc(S(=O)(=O)N(C)C[C@H]2Oc3ccc(NC(=O)C4CC4)cc3CC(=O)N([C@H](C)CO)C[C@@H]2C)cc1	-10	1
CCCNC(=O)N[C@H]1CC[C@@H](CC(=O)NC2CCCCC2)O[C@@H]1CO	4	9
N#C[C@H]1[C@@H](c2ccccc2C2=CCCCC2)[C@@H](CO)N1C(=O)Cc1ccncc1	-6	-3
COc1ccc(CN(C)C[C@H]2OCCCC[C@@H](C)Oc3ccc(NS(=O)(=O)c4cccs4)cc3C(=O)N([C@@H](C)CO)C[C@@H]2C)cc1	-23	-24
COc1ccccc1-c1ccc2c(c1)O[C@@H](CN(C)C(=O)c1ccncc1)[C@H](C)CN([C@@H](C)CO)S2(=O)=O	-3&6	-4&7
Cc1noc(C)c1NC(=O)N(C)C[C@H]1OCCCC[C@H](C)Oc2ccc(NC(=O)C3CCCCC3)cc2C(=O)N([C@H](C)CO)C[C@H]1C	24	12
Cc1ccc(-c2ccccc2[C@H]2[C@@H](C#N)N(C(=O)Cc3cccnc3)[C@@H]2CO)cc1	-20	-13
COc1ccc(C#Cc2ccc([C@H]3[C@@H](CO)N4CCCCN(S(=O)(=O)c5cn(C)cn5)C[C@H]34)cc2)cc1	?	.
CCCN1C[C@@H](C)[C@@H](OC)CN(C)C(=O)c2cc(NC(=O)c3ccccc3)ccc2OC[C@@H]1C	-7	-4
CCCC(=O)Nc1ccc2c(c1)OC[C@H](C)N(CCC(F)(F)F)C[C@H](C)[C@H](OC)CN(C)C2=O	6	0
CC(=O)N(C)C[C@H]1Oc2ncc(-c3ccccc3C)cc2C(=O)N([C@H](C)CO)C[C@@H]1C	0	8
CNC[C@H]1Oc2c(NC(=O)c3nc4ccccc4s3)cccc2C(=O)N([C@@H](C)CO)C[C@@H]1C	4	-3
CCC(=O)Nc1ccc2c(c1)C(=O)N(C)[C@@H]1CC[C@@H](CC(=O)N3CCCCC3)O[C@@H]1CO2	8	9
C[C@H](CO)N1C[C@H](C)[C@@H](CN(C)Cc2ccc(C(=O)Nc3ccccc3N)cc2)Oc2c(NC(=O)Nc3ccc(F)cc3)cccc2C1=O	12	13
O=C(C[C@@H]1CC[C@@H]2[C@H](COC[C@@H](O)CN2Cc2ccc(F)cc2)O1)NCCc1ccccc1	-18	-18
C[C@H]1CN([C@@H](C)CO)C(=O)Cc2cc(NS(=O)(=O)c3cccs3)ccc2O[C@@H]1CN(C)S(=O)(=O)c1cn(C)cn1	-1	2
Cc1ccc(S(=O)(=O)Nc2ccc3c(c2)C(=O)N([C@@H](C)CO)C[C@@H](C)[C@@H](CN(C)C(=O)Nc2ccc(F)cc2)OCCCC[C@@H](C)O3)cc1	6	-1
N#C[C@H]1[C@H](c2ccc(C#CCC3CCCC3)cc2)[C@@H](CO)N1C(=O)CN1CCOCC1	-28	-23
C[C@@H]1CN([C@@H](C)CO)C(=O)Cc2cc(NS(=O)(=O)c3ccc(F)cc3)ccc2O[C@H]1CN(C)Cc1ccc(C(=O)O)cc1	7	6
O=C(NC1CCCCC1)[C@@H]1[C@@H](CO)[C@@H]2Cn3c(cccc3=O)[C@@H]2N1CC1CCOCC1	7	0
COc1ccc(CN(C)C[C@@H]2Oc3c(NC(=O)c4cnccn4)cccc3C(=O)N([C@H](C)CO)C[C@H]2C)cc1	0	0
CO[C@@H]1CN(C)C(=O)c2ccc(NC(=O)Nc3ccccc3Cl)cc2OC[C@@H](C)N(C)C[C@H]1C	?	.
C[C@@H]1CCCCO[C@@H](CN(C)Cc2ccccc2)[C@H](C)CN([C@H](C)CO)C(=O)c2cc(NS(=O)(=O)c3ccc(F)cc3)ccc2O1	?	.
COCC(=O)N1CC[C@@H]2[C@H](CO)Nc3ccc(C#Cc4ccc(OC)cc4)cc3[C@@H]21	-1	6
COc1ccc(CN(C)C[C@@H]2Oc3c(NC(=O)C4CCCCC4)cccc3C(=O)N([C@H](C)CO)C[C@@H]2C)cc1	-6	3
CN1c2ccc(-c3ccc(C#N)cc3)cc2[C@@H]2[C@@H](CCN2C(=O)NC2CCCCC2)[C@@H]1CO	?	.
C[C@@H]1CN([C@H](C)CO)C(=O)c2cccc(NC(=O)c3ccncc3)c2O[C@@H]1CN(C)S(=O)(=O)c1ccccc1	18	4
C[C@@H](NC(=O)C[C@H]1CC[C@H](NC(=O)Cc2ccccn2)[C@H](CO)O1)c1ccccc1	9	15
O=C(C[C@@H]1CC[C@H]2[C@@H](COC[C@@H](O)CN2Cc2cc(F)ccc2F)O1)NCc1ccc(F)cc1	-10	-2
Cc1ccc(S(=O)(=O)N[C@@H]2CC[C@H](CCn3cc(C4CCCC4)nn3)O[C@@H]2CO)cc1	-18	-17

Shown with values under each structure: part of the list above
Every second line gives: Vaccinia stage | Vaccinia stage Venus
> N#C[C@H]1[C@H](c2ccc(C#CCC3CCCC3)cc2)[C@@H](CO)N1C(=O)CN1CCOCC1
 : -28 | -23
> C[C@@H]1CN([C@@H](C)CO)C(=O)Cc2cc(NS(=O)(=O)c3ccc(F)cc3)ccc2O[C@H]1CN(C)Cc1ccc(C(=O)O)cc1
 : 7 | 6
> O=C(NC1CCCCC1)[C@@H]1[C@@H](CO)[C@@H]2Cn3c(cccc3=O)[C@@H]2N1CC1CCOCC1
 : 7 | 0
> COc1ccc(CN(C)C[C@@H]2Oc3c(NC(=O)c4cnccn4)cccc3C(=O)N([C@H](C)CO)C[C@H]2C)cc1
 : 0 | 0
> CO[C@@H]1CN(C)C(=O)c2ccc(NC(=O)Nc3ccccc3Cl)cc2OC[C@@H](C)N(C)C[C@H]1C
 : ? | .
> C[C@@H]1CCCCO[C@@H](CN(C)Cc2ccccc2)[C@H](C)CN([C@H](C)CO)C(=O)c2cc(NS(=O)(=O)c3ccc(F)cc3)ccc2O1
 : ? | .
> COCC(=O)N1CC[C@@H]2[C@H](CO)Nc3ccc(C#Cc4ccc(OC)cc4)cc3[C@@H]21
 : -1 | 6
> COc1ccc(CN(C)C[C@@H]2Oc3c(NC(=O)C4CCCCC4)cccc3C(=O)N([C@H](C)CO)C[C@@H]2C)cc1
 : -6 | 3
> CN1c2ccc(-c3ccc(C#N)cc3)cc2[C@@H]2[C@@H](CCN2C(=O)NC2CCCCC2)[C@@H]1CO
 : ? | .
> C[C@@H]1CN([C@H](C)CO)C(=O)c2cccc(NC(=O)c3ccncc3)c2O[C@@H]1CN(C)S(=O)(=O)c1ccccc1
 : 18 | 4

(next part)
SMILES	Vaccinia stage	Vaccinia stage Venus
CN1CCN(C(=O)C[C@@H]2C[C@@H]3c4cc(NC(=O)NC5CCCC5)ccc4O[C@@H]3[C@@H](CO)O2)CC1	11	4
C[C@H]1CN([C@@H](C)CO)C(=O)c2ccccc2-c2ccccc2CO[C@H]1CN(C)Cc1ccc(O)cc1	9	6
Cc1noc(C)c1NC(=O)N[C@@H]1CC[C@H](CC(=O)NCCCN(C)C)O[C@H]1CO	6	-1
C[C@H]1CCCCO[C@@H](CN(C)S(=O)(=O)c2ccc(Cl)cc2)[C@@H](C)CN([C@@H](C)CO)C(=O)c2cc(NC(=O)NC3CCCCC3)ccc2O1	?	.
C[C@H](CO)N1C[C@H](C)[C@H](CN(C)S(C)(=O)=O)Oc2ncc(/C=C/c3ccccc3)cc2C1=O	1&8	1&3
CCCC(=O)N1CC2(CN(C(=O)NC(C)C)C2)c2c(n(C)c3cc(OC)ccc23)[C@H]1CO	17	8
CNC(=O)C[C@H]1CC[C@H]2[C@H](COc3ccc(NC(=O)c4cc(F)cc(F)c4)cc3C(=O)N2C)O1	-4	5
CS(=O)(=O)N1[C@H](CO)[C@H](c2ccccc2)[C@@H]1C#N	11	7
CNC(=O)C[C@@H]1CC[C@H]2[C@@H](COc3ccc(NC(=O)Nc4ccc(F)cc4)cc3C(=O)N2C)O1	3	-4
C[C@@H]1CN([C@@H](C)CO)C(=O)c2cc(NC(=O)CCCCCC(=O)Nc3ccccc3N)ccc2O[C@@H]1CN(C)S(=O)(=O)c1ccc(Cl)cc1	14	3
CCCNC(=O)[C@@H]1[C@@H](CO)[C@@H]2Cn3c(cccc3=O)[C@@H]2N1C(=O)C1CCC1	12	8
N#Cc1ccc(-c2ccc([C@@H]3[C@@H](CO)N4C(=O)CN(C(=O)Cc5ccccc5)C[C@@H]34)cc2)cc1	-20	-17
CO[C@@H]1CN(C)C(=O)c2ccc(NC(C)=O)cc2OC[C@H](C)N(CCC(F)(F)F)C[C@H]1C	-15	-8
CC(C)NC(=O)N1[C@H](CO)[C@@H]2c3ccccc3N(C(=O)Nc3ccc(F)cc3)C[C@@H]21	21	14
C[C@H](CO)N1C[C@H](C)[C@@H](CN(C)Cc2ccc(-c3ccccc3)cc2)Oc2ccc(NC(=O)Cc3ccccc3)cc2CC1=O	?	.
O=C(C[C@H]1CC[C@@H]2[C@H](COC[C@@H](O)CN2S(=O)(=O)c2ccccc2)O1)NCCN1CCCC1	12	11
C[C@H]1CN([C@@H](C)CO)C(=O)c2cc(NC(=O)NC3CCCCC3)ccc2O[C@H]1CN(C)S(=O)(=O)c1ccc(Cl)cc1	0	-5
COc1cccc(C#Cc2ccc([C@@H]3[C@@H](CO)N4C(=O)CN(C(=O)c5ccncc5)C[C@H]34)cc2)c1	-17	-4
CC(C)[C@H](C)NC(=O)N(C)C[C@H]1OCc2ccccc2-c2ccccc2C(=O)N([C@@H](C)CO)C[C@@H]1C	31	5
C=CCOC(=O)C1=C[C@@H](c2coc3ccccc3c2=O)C[C@@H](OCc2ccc(CO)cc2)O1	19	14
CCC(=O)N1C[C@@H](C)[C@@H](OC)CN(C)C(=O)c2cc(NC(=O)Nc3ccc(Cl)cc3)ccc2OC[C@H]1C	-8	5
O=C(C[C@@H]1C[C@@H]2c3cc(NC(=O)Nc4ccccc4)ccc3O[C@@H]2[C@H](CO)O1)NCc1cccc(F)c1	2	-4
CCO[C@@H]1OC(C(=O)NCc2nc3ccccc3[nH]2)=C[C@H](C2CC2)[C@H]1CCCO	-4	-13
N#C[C@H]1[C@@H](c2ccccc2/C=C/c2ccccc2)[C@@H](CO)N1C(=O)Nc1ccccc1	-1	8
C[C@@H]1CCCCO[C@H](CN(C)S(=O)(=O)c2ccc(F)cc2)[C@H](C)CN([C@@H](C)CO)C(=O)c2cc(NS(=O)(=O)c3ccc(Cl)cc3)ccc2O1	?	.
C[C@@H]1CN([C@@H](C)CO)C(=O)c2cccc(N(C)C)c2O[C@@H]1CN(C)S(=O)(=O)c1ccc(Cl)cc1	-10	-17
C[C@H]1CCCCO[C@H](CN(C)S(=O)(=O)c2ccccc2)[C@@H](C)CN([C@@H](C)CO)C(=O)c2cc(NC(=O)C3CCCCC3)ccc2O1	?	.
O=C(NCCc1ccccc1)[C@@H]1[C@@H](CO)[C@@H]2Cn3c(cccc3=O)[C@@H]2N1Cc1ccncc1	8	5
C[C@H]1CN([C@@H](C)CO)S(=O)(=O)c2ccc(C3=CCCCC3)cc2O[C@@H]1CN(C)Cc1ccccc1F	?	.
Cc1noc(C)c1S(=O)(=O)N(C)C[C@@H]1Oc2ccc(NC(=O)NC3CCCCC3)cc2CC(=O)N([C@@H](C)CO)C[C@@H]1C	5	6
COC(=O)[C@H]1[C@H](CO)[C@H]2Cn3c(ccc(-c4cccc(OC)c4)c3=O)[C@@H]1N2C(=O)c1ccccc1F	3	2
CC(C)NC(=O)Nc1cccc2c1O[C@@H](CN(C)CC1CCCCC1)[C@H](C)CN([C@@H](C)CO)C2=O	?	.
O=C(NCCc1ccncc1)[C@@H]1[C@@H](CO)[C@@H]2Cn3c(ccc(-c4cccc(F)c4)c3=O)[C@H]1N2	3	0
COc1ccc(S(=O)(=O)Nc2ccc3c(c2)C(=O)N([C@H](C)CO)C[C@@H](C)[C@@H](CN(C)CC2CCCCC2)O3)cc1	-11	-6
O=C(Nc1ccc(F)cc1)N1CC(=O)N2[C@H](CO)[C@H](c3ccc(-c4ccc(F)cc4)cc3)[C@@H]2C1	?	.
CO[C@@H]1CN(C)C(=O)c2ccc(NS(=O)(=O)c3cccc(C)c3)cc2OC[C@@H](C)NC[C@H]1C	34	4
O=C([C@H]1[C@H](CO)[C@H]2Cn3c(ccc(C4=CCCCC4)c3=O)[C@@H]1N2)N1CCC(Cc2ccccc2)CC1	-13	-11
COc1cccc(S(=O)(=O)Nc2ccc3c(c2)C(=O)N(C)C[C@@H](OC)[C@@H](C)CN(Cc2ccccc2F)[C@@H](C)CO3)c1	?	.
C[C@@H]1CN([C@H](C)CO)C(=O)c2cc(NC(=O)Nc3ccccc3)ccc2O[C@@H]1CN(C)Cc1ccc(Oc2ccccc2)cc1	?	.
C[C@H](CO)N1C[C@H](C)[C@@H](CN(C)Cc2ccncc2)Oc2ccc(NS(=O)(=O)c3ccc(F)cc3)cc2CC1=O	4	-1
Cc1noc(C)c1NC(=O)N(C)C[C@@H]1Oc2cc(C#CCC3CCCC3)ccc2S(=O)(=O)N([C@H](C)CO)C[C@H]1C	?	.
O=C(C[C@@H]1C=C[C@H](NC(=O)C2CCC2)[C@H](CO)O1)NC1CCCCC1	10	4
O=C(C[C@H]1CC[C@@H](NC(=O)c2ccncc2)[C@H](CO)O1)Nc1ccccc1	8	10
C[C@@H]1CN([C@@H](C)CO)C(=O)c2cc(NC(=O)NC3CCCCC3)ccc2O[C@@H](C)CCCCO[C@H]1CN(C)CC1CC1	14	-1

An excerpt; rates above refer to the full screens.
